Screening results as filed in PubChem.
Vaccinia mCherry: qHTS for Stage-Specific Inhibitors of Vaccinia Orthopoxvirus: mCherry Reporter Primary qHTS | Vaccinia virus mCherry reporter infection, fluorescence; about a quarter of the inactives have no number | Potency, µM (doses to about 36.5 µM), for the others: at the top dose activity change, negative = inhibition, hits mostly inhibitors | actives 0.63% (n = 310,000); active = well fitted inhibition curve with a large enough effect; inconclusive = small, poorly fitted or top-dose-only effect; inactive = no such curve, though single readings can be large or run the other way; tested in A549 cells; also: nearly all actives have a fitted effect of over 35% in size; inactives centre near -10
Vaccinia Venus: qHTS for Stage-Specific Inhibitors of Vaccinia Orthopoxvirus: Venus Reporter Primary qHTS | actives 0.46% (n = 330,000) | Potency, µM (top dose mostly 36.5 µM), inactives show at the highest dose activity change, negative = inhibition, hits mostly inhibitors | AID 720580, 2013 | Vaccinia virus Venus reporter expression, fluorescence; active means well fitted inhibition curve with a large enough effect; inconclusive means small, poorly fitted or top-dose-only effect; inactive means no such curve, though single readings can be large or run the other way; tested in A549 cells; also: nearly all actives have a fitted effect of over 30% in size; inactives centre near -10
The depositor's hits bear a star; i = inactive; ? = inconclusive; · = no result given; [ ] = dose if it differs, or a comment. % is scaled to controls: 0 for no effect and ±100 for the full control effect; potency is read from the fitted curve at half-maximal effect. An unsorted share of the library. Share with any hit: about 0.87%.

SMILES	Vaccinia mCherry	Vaccinia Venus
Cc1ccc(S(=O)(=O)N2CCN(CCNC(=O)C(=O)NCc3ccccc3)CC2)cc1	?	8%
CC(C)(C)[C@]1(O)C[C@@H]2OC(=O)C[C@@]23C(=O)O[C@@H]2OC(=O)[C@H](O)[C@]213	-10%	-9%
Cc1oc(C(N)=O)cc1COc1ccc(C(N)=O)cc1	i	-1%
Cc1nnc(SCC(=O)NC2CCCC2)s1	-5%	-4%
O=C(Cc1cccs1)Nc1ccccn1	-14%	1%
Cc1cc2c(c(SCC(N)=O)n1)C(=O)OC2	3%	13%
O=C(CCS(=O)(=O)c1ccccc1)NC12CC3CC(CC(C3)C1)C2	-4%	-14%
Cc1ccnc(NS(=O)(=O)c2ccc(NC(=O)c3nc(SC(C)C)ncc3Cl)cc2)n1	-1%	11%
Cc1cccc(NC(=O)Cn2ncc3c4ccccc4n(Cc4ccccc4)c3c2=O)c1C	-13%	-5%
CCOc1ccc(Br)cc1S(=O)(=O)N1CCCN(C)CC1	i	-14%
COc1ccc(CN2CCN(Cc3cn(C)nc3-c3ccccc3)CC2CCO)c(C)c1C (centres undefined)	-7%	-8%
CC1CC(=O)N(c2ccc(NCCc3ccccc3)c([N+](=O)[O-])c2)C1=O (centres undefined)	i	7%
CCOC(=O)c1ccc(NC2=CC(=O)CC(c3ccco3)C2)cc1 (centres undefined)	i	-8%
CCC(Sc1nnc(C)n2c1cc1occc12)C(=O)Nc1ccccc1OC (centres undefined)	-4%	-1%
O=C(CSc1ncccn1)N/N=C/c1ccc(OC2CSC2)cc1	i	-13%
CCOC(=O)C1CCN(CCC(=O)Nc2ccc(OC)cc2)CC1	-6%	-5%
Cc1cccc(C(=O)Nc2nnc(SCC(=O)Nc3ccc4c(c3)oc3ccccc34)s2)c1	-13%	-4%
C[C@]12CCC3C(CC[C@H]4C[C@H](O)CC[C@]34C)C1C[C@H](O)[C@H]2O (some centres undefined)	-2%	-16%
CC1CN(C)C(c2ccccc2)C(C)C12NC(=O)NC2=O (centres undefined)	·	-17%
Cc1nc2ccccc2c(C)c1CC(=O)N(CC(C)C)c1c(N)n(Cc2ccccc2)c(=O)[nH]c1=O	-24%	-15%
CCOc1cc(C=C2C(=O)NC(=S)NC2=O)ccc1O	-5%	5%
COCCOC(=O)c1c(C)oc2ccc(NS(=O)(=O)c3ccc(C(=O)O)cc3)cc12	-7%	0%
CCC1(CC)C(=O)NC(=O)NC1=NCCc1ccc(O)cc1	·	1%
Fc1ccc(Nc2ncnc3onc(-c4ccc(Cl)cc4)c23)cc1Cl	-12%	1%
O=C(NCc1ccc2c(c1)OCO2)C(=O)NCC1OCCCN1S(=O)(=O)c1ccccc1 (centres undefined)	i	-7%
COc1ccc2[nH]c(O)c(NC(C)=O)c2c1	i	-6%
CCn1cc(Br)c(C(=O)Nc2cccc(Cl)c2)n1	i	-5%
COc1ccc(NC(=O)CSc2cccc3cccnc23)c(OC)c1	i	2%
CCOc1ccc(NC(=O)CC2C(=O)N(c3cccc(OC)c3)C(=O)N2C(C)C)cc1 (centres undefined)	-17%	-17%
CCCCC1=CC2=CC(=O)C(C)(OC(=O)c3cccs3)C(=O)C2=CO1 (centres undefined)	i	18%
Cc1cccc(NS(=O)(=O)c2ccc3c(c2)CCN3C(=O)C2CCC2)c1	-23%	-25%
Cc1ccc(-c2nnn(CC(=O)N3CCN(c4ccccc4)CC3)n2)o1	1%	-2%
COc1cc(NC(=O)C2CCCCN2)ccc1OCC(C)C (centres undefined)	-17%[1.46 µM]	-24%
CCOC(=O)/C(C#N)=C1/SC(CCO)C(=O)N1c1ccccc1 (centres undefined)	-13%	-14%
CC1(C(=O)NC2CCN(Cc3ccccc3)CC2)CCN1CCc1ccccc1 (centres undefined)	i	-12%
CC(=O)NN1C(=O)/C(=C\c2ccc(C)cc2)SC1=S	-12%	-10%
CCN(C(=O)COC(=O)C1=COCCO1)c1c(N)n(Cc2ccccc2)c(=O)[nH]c1=O	i	-15%
c1ccc(C2[C@H]3CN(Cc4cccnc4)[C@H](c4ccccc4)C34CC2(c2ccccc2)C4)cc1 (some centres undefined)	-27%	-17%
Cc1ccc(C(=O)N2CCN(c3ncccn3)CC2)c(C)c1	-3%	-12%
C=Cc1ccc(CSc2nc(-c3ccccc3Cl)nc3c2Cc2c(CO)cnc(C)c2O3)cc1	?	-29%
COc1ccc(CCNC(=O)CSc2ccc(-c3ccco3)nn2)cc1OC	-2%	-9%
COc1ccc(/C=N/N2C(=O)C3C4C=CC(C4)C3C2=O)cc1[N+](=O)[O-] (centres undefined)	8%	0%
NS(=O)(=O)c1cccc(NC(=O)c2cccc(N3C(=O)c4ccccc4C3=O)c2)c1	-18%	-5%
COc1ccccc1-c1c(C(F)(F)F)oc2cc(OCC(=O)Nc3ccccc3C(F)(F)F)ccc2c1=O	-9%	-3%
CC(C)C[C@@H](CN1CCC[C@H]1CN1C(=O)C(=O)NC[C@@H]1Cc1ccc(O)cc1)N1C[C@H](Cc2ccccc2)N(CC2CCCCCC2)C(=O)C1=O	-6%	-8%
C/C(=N\NC(=O)c1ccncc1)c1cc2ccccc2o1	i	-18%
Cc1cccc(NC(=O)N2CCCC2C(=O)NCc2cccs2)c1 (centres undefined)	·	-22%
Cn1c(CO)cnc1SCC(=O)c1ccc(F)cc1	-3%	-16%
COc1ccc(N(C(=O)CNC(=O)c2cccs2)C(C(=O)NC2CCCC2)c2ccncc2)cc1 (centres undefined)	-4%	9%
Cc1ccccc1-n1nc(CO)c(C(=O)NCc2cccnc2)n1	1%	1%
COc1ccc(NS(=O)(=O)c2cc(OC)ccc2NC(=O)c2cc(C)oc2C)cc1	?	?
Cc1cc(NC(=O)CCC(=O)N(CCC(C)C)C(C(=O)NC2CCCC2)c2cccnc2)no1 (centres undefined)	i	-9%
COc1ccc(-c2cc(C(=O)Nc3cccc(C(C)=O)c3)no2)cc1OC	4%	1%
Cc1cc(Cl)c(S(N)(=O)=O)cc1OCC(=O)NC1CCCCC1	-12%	-7%
CCCc1nc2c(C)cc(Br)cn2c1Cc1ccccc1	-6%	-10%
CCCCC(=O)Nc1cc(-c2nc3ncccc3o2)ccc1C	-2%	-1%
O=S(=O)(O)c1ccc(NN=Cc2ccccc2O)cc1	-8%	-3%
COC(=O)Cn1c(C(=O)N(C)C)cc2c1C[C@H]1CN(C(=O)c3ccccc3)[C@@](Cc3ccc(F)cc3)(C(=O)OC)[C@@H]21	i	-19%
Cc1nc(N)nc(N(C)c2ccccc2)c1Br	-3%	-3%
CCN(CC)S(=O)(=O)c1cccc(-c2nnc(SCC(N)=O)n2CCc2ccccc2)c1	-22%	-8%

The results go on.
SMILES	Vaccinia mCherry	Vaccinia Venus
C=CCOc1ccc(/C=C/C(=O)OCC(=O)N(C)CC(=O)Nc2ccc(F)cc2)cc1	-12%	-11%
Cc1ccc(S(=O)(=O)CC(=O)N2CCCC2)cc1	·	-23%
CC1(C)Cc2c(sc3c2c(=N)n(Cc2ccco2)c(=O)n3Cc2ccc(Cl)cc2)CO1	·	-20%
O=C(Nc1ccc(O)cc1)c1ccc(C(=O)c2ccccc2)o1	-24%	-16%
CCc1ccc(NC(=O)C2CCC(CNS(=O)(=O)c3cccs3)CC2)cc1 (centres undefined)	0%	-8%
CSCCC(Nc1ccc(S(=O)(=O)N2CCOCC2)cc1[N+](=O)[O-])C(=O)OCC(=O)N(C(C)C)C(C)C (centres undefined)	-3%	5%
CC(/C=C/c1ccc(N(C)C)cc1)=N\N=C1\NC(=O)CC(C(=O)Nc2ccccc2)S1 (centres undefined)	?	-23%
CCOc1ccc(NC(=O)CN2CCN(Cc3ccccc3)S2(=O)=O)cc1	-12%	-5%
Cc1ccc(NC(=S)NCc2ccccc2Cl)c(C)c1	-10%	-3%
CC(=O)Nc1cccc(-c2nnc(SCC(=O)c3cc([N+](=O)[O-])ccc3Br)o2)c1	i	-11%
CC(C)OCCCNC(=S)N1CCC(C(=O)c2ccc(F)cc2)CC1	-16%	-16%
O=C(COC(=O)Cc1ccc(S(=O)(=O)N2CCOCC2)s1)NCCc1ccccc1	-9%	-3%
Nc1ccc(S(=O)(=O)c2ccccc2)nc1	i	-6%
O=C(NCc1ccccc1Cl)c1ccncc1	?	-14%
Cc1ccc(S(=O)(=O)c2cc(C#N)c(=O)[nH]c2N)cc1	-20%	-9%
C[C@@H]1CN(Cc2ccc3c(c2)CN(C(=O)c2ccc(Oc4ccccc4)o2)CCO3)C[C@H](C)O1	-29%	-21%
O=C(NCc1ccc(F)cc1)c1ccc2c(Cl)c3c(nc2c1)CCCC3	-12%[7.34 µM]	-9%[7.34 µM]
Cc1ccc(-n2nnnc2CNC(=O)c2ccccc2C)cc1C	1%	-11%
CC(=O)N/C(=C/c1ccccc1)c1ccncc1	12%	-12%
S=c1[nH]cnc2scc(-c3ccccc3)c12	i	-22%

Structures above containing an aryl methoxy group (13):
SMILES	Vaccinia mCherry	Vaccinia Venus
COc1ccc(CN2CCN(Cc3cn(C)nc3-c3ccccc3)CC2CCO)c(C)c1C (centres undefined)	-7%	-8%
CCC(Sc1nnc(C)n2c1cc1occc12)C(=O)Nc1ccccc1OC (centres undefined)	-4%	-1%
CCOC(=O)C1CCN(CCC(=O)Nc2ccc(OC)cc2)CC1	-6%	-5%
COc1ccc2[nH]c(O)c(NC(C)=O)c2c1	i	-6%
COc1ccc(NC(=O)CSc2cccc3cccnc23)c(OC)c1	i	2%
CCOc1ccc(NC(=O)CC2C(=O)N(c3cccc(OC)c3)C(=O)N2C(C)C)cc1 (centres undefined)	-17%	-17%
COc1cc(NC(=O)C2CCCCN2)ccc1OCC(C)C (centres undefined)	-17%[1.46 µM]	-24%
COc1ccc(CCNC(=O)CSc2ccc(-c3ccco3)nn2)cc1OC	-2%	-9%
COc1ccc(/C=N/N2C(=O)C3C4C=CC(C4)C3C2=O)cc1[N+](=O)[O-] (centres undefined)	8%	0%
COc1ccccc1-c1c(C(F)(F)F)oc2cc(OCC(=O)Nc3ccccc3C(F)(F)F)ccc2c1=O	-9%	-3%
COc1ccc(N(C(=O)CNC(=O)c2cccs2)C(C(=O)NC2CCCC2)c2ccncc2)cc1 (centres undefined)	-4%	9%
COc1ccc(NS(=O)(=O)c2cc(OC)ccc2NC(=O)c2cc(C)oc2C)cc1	?	?
COc1ccc(-c2cc(C(=O)Nc3cccc(C(C)=O)c3)no2)cc1OC	4%	1%

Other results
SMILES	Vaccinia mCherry	Vaccinia Venus
COC(=O)c1ccc(C23CC4(C2)[C@H](CN(CC2CCCCC2)[C@@H]4c2ccccc2)C3c2ccc(C(F)(F)F)cc2)cc1 (some centres undefined)	-9%	-16%
CS(=O)(=O)c1ccc(Cl)c(NC(=O)Cc2c(Cl)cccc2Cl)c1	-6%	-9%
CC1CCCC(NC(=O)COC(=O)CN2C(=O)C3CCCCC3C2=O)C1C (centres undefined)	-25%	-1%
Cc1ccc(C)c(NC(=O)Cc2nc(CNCC(C)C)cs2)c1	-18%	-9%
CC1Cc2cc(S(=O)(=O)NCc3ccc(F)cc3)ccc2N1C(=O)C1CCC1 (centres undefined)	-20%	-25%
CCCCN(C)C(=O)c1[nH]c(C(F)(F)F)nc1-c1ccccc1	-2%	4%
CC1(c2nnnn2Cc2ccccc2)CCC(=O)N1Cc1cccs1 (centres undefined)	-5%	7%
N#CC1(NC(=O)COc2ccc(S(=O)(=O)N3CCCC3)cc2[N+](=O)[O-])CCCCC1	?	?
CCCn1c(SCC(=O)NCc2ccc(OC)cc2)n[nH]c1=O	-1%	-18%
O=c1cc(CN2CCCCCC2)nc2sccn12	i	-4%
COc1cc2c(cc1OC)C(C(=O)NCCN1CCOCC1)C1c3ccccc3CCN1C2=O (centres undefined)	-13%	-5%
O=C(CCCn1c(SCC(=O)Nc2ccccc2C(F)(F)F)nc2ccccc2c1=O)NCC1CCCO1 (centres undefined)	i	-14%
Cc1ccc(-c2cc(-c3cccs3)[nH]n2)c(O)c1	·	-16%
O=C(NCc1ccccc1F)c1ccc2ccccc2n1	i	-11%
CCN(CC)CCCNC(=S)N1CCn2c(nc3ccccc32)C1	-13%	0%
CC(Oc1ccc(C(C)(C)C)cc1)C(=O)NC1CC(C)(C)NC(C)(C)C1 (centres undefined)	-9%	-17%
O=C(O)/C=C/c1ccc(S(=O)(=O)N(CCO)CCO)cc1	-22%	-2%
CCOC(=O)c1c(C)[nH]c(C(=O)CN2C(=O)C(=O)N(CC(C)C)C2=O)c1C	-12%	-10%
COc1ccc(/C=C(/NC(=O)c2ccc(Br)cc2)C(=O)Nc2cccc(C(=O)O)c2)cc1	-9%	-1%
COc1cc(-c2nc3ccc(N4CCN(C)CC4)cc3[nH]2)cc(OC)c1OC	-13%	-8%
Cc1[nH]nc2c1C(c1cccs1)C1=C(CC(C)(C)CC1=O)N2 (centres undefined)	4%	3%
CC(=O)Nc1ccc(/C=N/NC(=O)c2cc(-c3ccco3)nc3ccccc23)cc1	-14%	0%
CS(=O)(=O)NNC(=O)c1csc(Cc2c(Cl)sc3ccc(Cl)cc23)n1	1%[7.34 µM]	-7%[7.34 µM]
COc1ccc(/C=C/C(=O)OCC(=O)N2CCCC2)c(OC)c1	-8%	-5%
CC1CN(C(=O)CSc2nnc(-c3ccncc3)n2-c2ccccc2)CC(C)O1 (centres undefined)	-4%	-8%
CCC(C)NC(=O)c1cc(-c2cccs2)nc2ccccc12 (centres undefined)	-14%	-8%
COc1ccc(C2=Nn3c([n+](C)c4ccccc43)SC2)cc1	-15%	?
OCc1nc2ccccc2n1CCCc1ccccc1	-5%	-14%
